LASV entry inh: Lassa virus entry inhibition; AID 720533; Lassa virus pseudotyped entry inhibition, cell-based qHTS; control for the full effect not named in the record; many of its hits are not listed in these tables; 18,000 tested, 4.1% active; Potency, µM (doses to about 49.2 µM), for the others: at the highest dose activity change, negative = inhibition, most hits filed as inhibitors; active = well fitted inhibition curve with a large enough effect; inconclusive = small, poorly fitted or top-dose-only effect; inactive = no such curve, though single readings can be large or run the other way; tested in HEK293 cells; further: luciferase read-out
MARV entry inh: inhibitors of Marburg virus binding or entry into cells | Marburg virus pseudotype entry/binding inhibition, cell-based; control for the full effect not named in the record; many of its hits are not listed in these tables | 18,000 tested, 6.5% active | AID 720532 | Potency, µM (series often up to 49.2 µM), inactives show at the highest dose activity change, negative = inhibition, usual class: inhibitors; active means well fitted inhibition curve with a large enough effect; inconclusive means small, poorly fitted or top-dose-only effect; inactive means no such curve, though single readings can be large or run the other way; tested in HEK293 cells; further: luciferase read-out
Numbers without * were called inactive; & = joins results of further samples; ! = repeats disagree; [ ] = remark or other dose. On the % scale 0 is the no-effect control and ±100 the full control effect; potency means the concentration at half of the fitted maximal effect. A portion of the library, so the mix of outcomes need not match the whole.

What do the screens show for `COc1ccc(COc2cc(-c3cccc(OC)c3)nc3ccc(NC(C)=O)cc23)cc1`?
LASV entry inh: -14%; MARV entry inh: 11%

Results for COc1cc(=O)n2c(c1C(=O)N(C)Cc1nonc1C)CCN(C(=O)c1ccc(C)cc1C)CC2 ?
LASV entry inh: inconclusive; MARV entry inh: 11%

What do the screens show for `CC(C)C[C@H]1C(=O)N2CCC[C@H]2[C@]2(O)O[C@](NC(=O)[C@@H]3C[C@@H]4c5cccc6[nH]cc(c56)C[C@H]4N(C)C3)(C(C)C)C(=O)N12`?
LASV entry inh: -15%; MARV entry inh: inconclusive

How did CCCCCC(=O)N1C[C@@H](O)[C@H](n2cc(COC(=O)c3ccccc3)nn2)C[C@H]1c1ccc(Cl)cc1 do in these assays?
LASV entry inh: -18%; MARV entry inh: inconclusive

Results for Cc1cccc(CNc2ncnc3ccc(-c4cccnc4)cc23)c1 ?
LASV entry inh: inconclusive; MARV entry inh: -9%

What do the screens show for `CCOC(=O)[C@@]1([C@@H](NC(=O)OC)c2cccc(F)c2)CCCC1=O`?
LASV entry inh: 1%[8.59 µM]; MARV entry inh: -13%[8.59 µM]

Results for COc1ccc(N2CC(C)(C)[C@H](CC(=O)Nc3ccc(Br)cc3)C2=O)cc1 ?
MARV entry inh: -6%

How did Cc1ccccc1Cc1nc2cccnc2n1C1CCN(C(=O)CC2NC(=O)c3ccccc32)CC1 (configuration not stated) do in these assays?
LASV entry inh: inconclusive; MARV entry inh: 2%

What do the screens show for `C=C(C)C1CNC(C(=O)O)C1CC(=O)O` (configuration not stated)?
LASV entry inh: 4%; MARV entry inh: 5%

How did CCOC(=O)N1C2=NC(C(=O)OC)=C(C(=O)OC)[C@@H]3N(Cc4ccccc4)c4ccccc4[C@]23C[C@H]1C(=O)OC do in these assays?
LASV entry inh: -16%[8.59 µM]; MARV entry inh: -23%[8.59 µM]

What do the screens show for `CCCCCCN1C[C@@H](O)[C@H](n2cc(C3CC3)nn2)C[C@H]1c1ccc(OC)cc1`?
LASV entry inh: -8%; MARV entry inh: -22%

How did O=c1cc(-c2cccc(F)c2)[nH]c2ccccc12 do in these assays?
LASV entry inh: -21%[107 µM]; MARV entry inh: inconclusive

How did COC(=O)c1nnc(C(=O)NCc2ccccc2)c2[nH]c3ccccc3c12 do in these assays?
LASV entry inh: 3%; MARV entry inh: 16%

How did Cc1ccccc1CN1[C@@H](CC(C)C)COc2cc(Br)ccc2S1(=O)=O do in these assays?
LASV entry inh: 14%; MARV entry inh: -12%

What do the screens show for `CC(C)C[C@@H](NC(=O)OCC1c2ccccc2-c2ccccc21)C(=O)O`?
LASV entry inh: 14%; MARV entry inh: 9%

Results for COC(=O)[C@@]1(C=C2c3ccc(F)cc3[C@@H](OC)[C@@H]2C)[C@@H]2Oc3ccccc3[C@@H]21 ?
LASV entry inh: 1%[8.59 µM]; MARV entry inh: -17%[8.59 µM]

What do the screens show for `CSc1nnc(SC)nn1`?
LASV entry inh: -9%; MARV entry inh: 25%

What do the screens show for `COc1cc(OC)c2c(-c3cccc(-c4ccc(C(C)=O)cc4)c3)cc(=O)oc2c1`?
LASV entry inh: inconclusive; MARV entry inh: inconclusive

How did COc1cc(=O)n2c(c1C(=O)NC(C)c1ccco1)CCN(C(=O)c1ccc(F)cc1Cl)CC2 (configuration not stated) do in these assays?
LASV entry inh: 3%; MARV entry inh: 13%

Results for CC(C)C1C(=O)N(Cc2cn(CC3CCCCC3)nn2)CCS(=O)(=O)N1Cc1ccc(-c2ccc(Cl)nc2)cc1 (configuration not stated) ?
LASV entry inh: 11%; MARV entry inh: inconclusive

Results for C=CCN(CC=C)Cc1cc(=O)oc2cc(C)c(C)cc12 ?
LASV entry inh: inconclusive; MARV entry inh: -9%

Results for CN1[C@@H]2CC[C@H]1CC(OC(=O)c1c[nH]c3ccccc13)C2 (some centres not stated) ?
LASV entry inh: inconclusive; MARV entry inh: 20µM*!

What do the screens show for `NC(C(=O)O)[C@H](O)C(=O)O` (some centres not stated)?
LASV entry inh: 13%; MARV entry inh: 12%

How did CC1=C(C(=O)Nc2ccc3[nH]ncc3c2)C(c2ccc(Cl)c(Cl)c2)CC(=O)N1 (configuration not stated) do in these assays?
LASV entry inh: 17%; MARV entry inh: -18%

Results for NCCCCCCNc1nc2c(N)ncnc2n1[C@@H]1O[C@@H]2COP(=O)(O)O[C@H]2[C@H]1O ?
LASV entry inh: -3%; MARV entry inh: 3%

What do the screens show for `CCCCN1CCC[C@@H]1CNC(=O)c1cc(C#N)c2ccccc2c1OC`?
LASV entry inh: inconclusive; MARV entry inh: 14µM*

Results for CCOC(=O)C1=C(C)c2ccccc2OC1C(=O)OCC (configuration not stated) ?
LASV entry inh: 8%; MARV entry inh: -11%

What do the screens show for `COc1ccc(NC(=O)C[C@H]2C(=O)N(C3CCCCC3)C[C@@H]2C)cc1`?
MARV entry inh: 21%

How did CCN1CCCC1CNC(=O)c1cnn(-c2nccc(-c3ccccc3OC)n2)c1-c1ccco1 (configuration not stated) do in these assays?
LASV entry inh: -4%; MARV entry inh: inconclusive

Results for O=C(O)/C=C/CO ?
LASV entry inh: 4%&1%; MARV entry inh: 16%&-7%

As a short view, part of the list above.
What do the screens show for `NC(C(=O)O)[C@H](O)C(=O)O` (some centres not stated)?
LASV entry inh: 13%; MARV entry inh: 12%

How did CC1=C(C(=O)Nc2ccc3[nH]ncc3c2)C(c2ccc(Cl)c(Cl)c2)CC(=O)N1 (configuration not stated) do in these assays?
LASV entry inh: 17%; MARV entry inh: -18%

Four compounds picked at random from the list so far:
Results for O=C(O)/C=C/CO ?
LASV entry inh: 4%&1%; MARV entry inh: 16%&-7%

What do the screens show for `CCCCN1CCC[C@@H]1CNC(=O)c1cc(C#N)c2ccccc2c1OC`?
LASV entry inh: inconclusive; MARV entry inh: 14µM*

Results for COC(=O)[C@@]1(C=C2c3ccc(F)cc3[C@@H](OC)[C@@H]2C)[C@@H]2Oc3ccccc3[C@@H]21 ?
LASV entry inh: 1%[8.59 µM]; MARV entry inh: -17%[8.59 µM]

Results for NCCCCCCNc1nc2c(N)ncnc2n1[C@@H]1O[C@@H]2COP(=O)(O)O[C@H]2[C@H]1O ?
LASV entry inh: -3%; MARV entry inh: 3%

(further entries)
What do the screens show for `Cc1cnc(SCc2ccccn2)nc1C1CCCN(C(=O)c2ccc3c(c2)OCO3)C1` (configuration not stated)?
LASV entry inh: -15%; MARV entry inh: -1%

What do the screens show for `CCCCCCCCCCCCC/C=C/[C@@H](O)C(CO)NC(C)=O` (some centres not stated)?
LASV entry inh: -15%; MARV entry inh: -15%

What do the screens show for `CC(C)(C)OC(=O)N1CCCC(C(=O)Nc2cccc(C(=O)N3CCCC3)c2)C1` (configuration not stated)?
LASV entry inh: -24%; MARV entry inh: 14%

How did Cn1c(=O)[nH]c2nc[nH]c2c1=O do in these assays?
LASV entry inh: 1%; MARV entry inh: 8%

Results for ON=C1CCc2cc(-c3nc(C4CCNCC4)[nH]c3-c3ccncc3)ccc21 ?
LASV entry inh: 59%; MARV entry inh: -3%

Results for COC(=O)C/C=C/[C@@H](C)[C@@H](Cc1ccccc1Br)OC ?
LASV entry inh: 1%; MARV entry inh: -3%

What do the screens show for `O=C(c1cnsn1)N1CCOc2ccc(C(O)C(c3ccccc3)c3ccccc3)cc2C1` (configuration not stated)?
LASV entry inh: inconclusive; MARV entry inh: inconclusive

How did CC1C(=O)N(Cc2cn(CCC3OCCCO3)nn2)CCS(=O)(=O)N1Cc1ccc(-c2ccncc2)cc1 (configuration not stated) do in these assays?
LASV entry inh: -10%; MARV entry inh: 12%

How did O=C(O)c1cc(=O)[nH]c(=O)[nH]1 do in these assays?
LASV entry inh: 0%; MARV entry inh: 2%

Results for Cc1ccccc1C1(CC(=O)N2CCCCC2C)CC(=O)N(Cc2cccnc2)C1=O (configuration not stated) ?
LASV entry inh: -16%; MARV entry inh: -9%

How did CCC(C(N)=O)N1CCCC1=O (configuration not stated) do in these assays?
LASV entry inh: 2%&-5%; MARV entry inh: 0%&19%

Results for COC(=O)[C@H](CC(C)C)NC(=O)c1ccc(NC[C@@H](N)CS)cc1-c1cccc2ccccc12 ?
LASV entry inh: 11µM*; MARV entry inh: 11µM*

How did CC(C)OC(=O)[C@H](C)NC(=O)N1CCc2nc(-c3ccccc3)c3c(c2C1)CO[C@@H](C)C3 do in these assays?
LASV entry inh: -9%[8.59 µM]; MARV entry inh: -2%[8.59 µM]

What do the screens show for `CCN(CC)CCN1C(=O)CN=C(c2ccccc2F)c2cc(Cl)ccc21`?
LASV entry inh: -17%; MARV entry inh: inconclusive

What do the screens show for `COc1cc2c(cc1OC)C(=O)N(C)CC2`?
LASV entry inh: -7%; MARV entry inh: 10%

Results for C=C1c2ccccc2O[C@H](C(=O)OCC)[C@@H]1C1CCCCC1 (tested in a mixture with another compound) ?
LASV entry inh: -7%; MARV entry inh: -2%

How did COc1cccc([C@@H]2Oc3ccc(OC)cc3C[C@H]2OC(=O)N[C@H]2CCCc3ccccc32)c1 do in these assays?
LASV entry inh: 0%; MARV entry inh: 1%

How did C#CC(C)OC(=O)Nc1cccc(Cl)c1 (configuration not stated) do in these assays?
LASV entry inh: -6%; MARV entry inh: 0%

What do the screens show for `CCC1CN(CCNC(=O)c2cccnc2OC)Cc2cc(OC)ccc2O1` (configuration not stated)?
LASV entry inh: inconclusive; MARV entry inh: inconclusive

How did CCCCC/C=C\C/C=C\C/C=C\C/C=C\CCCC(=O)NC1CC1 do in these assays?
LASV entry inh: inconclusive; MARV entry inh: inconclusive

How did CC(C)[C@H](NC(=O)[C@H](CCC(N)=O)NC(=O)CNC(=O)[C@@H]1CCCN1C(=O)[C@H](Cc1ccc(O)cc1)NC(=O)CN)C(=O)O do in these assays?
LASV entry inh: -3%; MARV entry inh: -10%

Results for CCCC[C@]12Cc3cc(C#N)ccc3[C@H](O1)c1c(cc(C)n(-c3ccccc3)c1=O)O2 ?
LASV entry inh: -4%[8.59 µM]; MARV entry inh: -14%[8.59 µM]

Results for COc1ccc(CCN2CCC[C@H](CN3CCc4cc(OC)c(OC)cc4CC3=O)C2)cc1OC ?
LASV entry inh: 22%; MARV entry inh: -25%

How did Cc1cc(C(=O)Nc2ccccc2-c2nc(CNC(=O)c3sc(C)nc3C)c(C)o2)c(C)o1 do in these assays?
LASV entry inh: -18%; MARV entry inh: -24%

Results for CC(O)[C@@H](N)C(=O)O (some centres not stated) ?
LASV entry inh: -11%; MARV entry inh: 18%

Results for COc1ccc2c(c1)CCc1cnc(-n3ncc(C(=O)N(C)CC4CCCN(C)C4)c3C)nc1-2 (configuration not stated) ?
LASV entry inh: -4%; MARV entry inh: -27%

Results for CC(C)(O)CCC(O)[C@@](C)(O)C1CC[C@]2(O)C3=CC(=O)C4CC(O)C(O)C[C@]4(C)C3CC[C@]12C (some centres not stated) ?
LASV entry inh: -1%; MARV entry inh: 8%

How did CCCCCc1cc(O)c2c(c1)OC(C)(C)[C@@H]1CCC(C)=C[C@@H]21 do in these assays?
LASV entry inh: 35µM*; MARV entry inh: -23%

Results for CSC(=S)NCc1c[nH]c2ccccc12 ?
LASV entry inh: 3%&-11%; MARV entry inh: 27%&1%

How did NC(C(=O)NC1C(=O)N2C(C(=O)O)=C(Cl)CSC12)c1ccccc1 (configuration not stated) do in these assays?
LASV entry inh: 11%; MARV entry inh: 37%

Grouped by structure, the entries above containing an aryl thioether with sulfur outside any ring
What do the screens show for `CSc1nnc(SC)nn1`?
LASV entry inh: -9%; MARV entry inh: 25%

What do the screens show for `Cc1cnc(SCc2ccccn2)nc1C1CCCN(C(=O)c2ccc3c(c2)OCO3)C1` (configuration not stated)?
LASV entry inh: -15%; MARV entry inh: -1%

The listing continues.
Results for CCCCCCCC1Cc2ccccc2C(C(C(=O)OC)C(=O)OC)N1C(=O)OC (configuration not stated) ?
LASV entry inh: inconclusive; MARV entry inh: -8%

What do the screens show for `OCc1ccc(-c2nn(Cc3ccccc3)c3ccccc23)o1`?
LASV entry inh: inconclusive; MARV entry inh: 14µM*

Results for CO[C@@H]1[C@@H](O[C@@H]2O[C@H](C)[C@@H](O[C@H]3C[C@@](C)(O)[C@@H](OC(=O)CC(C)C)[C@H](C)O3)[C@H](N(C)C)[C@H]2O)[C@@H](CC=O)C[C@@H](C)[C@@H](O)/C=C/C=C/C[C@@H](C)OC(=O)C[C@H]1O ?
LASV entry inh: -1%&-6%; MARV entry inh: inconclusive

Results for CC(O)c1cccc(-c2ccc(CN3C[C@]4(CO)OC(CO)C[C@H]4[S+]3(=O)[O-])cc2)c1 (some centres not stated) ?
LASV entry inh: -26%; MARV entry inh: 14%

What do the screens show for `CN(C)c1ccc(-c2nccc(NCCN3CCOCC3)n2)cc1`?
LASV entry inh: inconclusive; MARV entry inh: -4%

Results for CC(=O)NCC(=O)NCC1Cc2cc(C)cc(-c3ccccn3)c2O1 (configuration not stated) ?
LASV entry inh: 1%; MARV entry inh: 3%

What do the screens show for `O=C(Nc1ccc(Oc2ccc(Cl)cc2)c(Cl)c1)c1cc(I)cc(I)c1O`?
LASV entry inh: inconclusive; MARV entry inh: -1%

What do the screens show for `COc1ccc(-c2cccc3c2OC(CNC(=O)c2ccc4c(c2)OCO4)C3)nn1` (configuration not stated)?
LASV entry inh: -10%; MARV entry inh: -7%

How did Cc1ccc2nc3sc(=O)sc3nc2c1 do in these assays?
LASV entry inh: -10%; MARV entry inh: 6%

How did O=C(O)c1ccccc1OS(=O)(=O)O do in these assays?
LASV entry inh: -23%; MARV entry inh: -8%

How did COc1cc(=O)n2c(c1C(=O)NC(C)c1ccco1)CCN(C(=O)c1ccnc(Cl)c1)CC2 (configuration not stated) do in these assays?
LASV entry inh: 22%; MARV entry inh: 24%

Screens: PubChem BioAssay, National Center for Advancing Translational Sciences (NCATS)
